Compound activity deposited in PubChem BioAssay by Southern Research Institute.
Mtb growth = Mycobacterium tuberculosis H37Rv growth inhibition, putative kinase inhibitor library, confirmatory dose response (AID 2842); M. tuberculosis H37Rv growth inhibition; higher % means a stronger effect; some inactives read as strong as hits; inhibition, % at 10 µg/mL; hits with a dose series show IC90 in µg/mL; actives 5.2% (n = 24,000);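 active = confirmed in a dose series; inconclusive = mostly over 85% at the one dose but not retested; inactive = below 85% or not confirmed; about a fifth of its hits are not listed in these tables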;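 note: bacteria incubated one week before Alamar blue readout; 0% = bacteria only wells and 100% = bacteria with high antibiotic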
The depositor's hits bear a star; ? = inconclusive.

SMILES | Mtb growth
CN(C1CCCCC1)S(=O)(=O)c1ccc(C(=O)Nc2nc3c(s2)CCc2ccccc2-3)cc1 | 3%
Cc1[nH]c2ccc(N3CCOCC3)cc2c(=O)c1CN1CCCCCC1 | -1%
CCS(=O)(=O)c1ccc(C(=O)Nc2nnc(-c3cccc(OC)c3)o2)cc1 | 78%
Cc1ccc(Nc2nc(NCCN3CCOCC3)nc3nccnc23)c(C)c1 | -4%
Cn1c(=O)c2c(SCc3ccc(F)cc3)nc(-c3ccccc3)nc2n(C)c1=O | -1%
COc1ccccc1OCC(=O)NC1CC(=O)N(c2cccc(F)c2)C1 (stereo unspecified) | -9%
O=C(CSc1nnc2ccc(-c3ccco3)nn12)c1cccs1 | -2%
Cn1c(=O)c2c(nc(N3CCN(c4cccc(Cl)c4)CC3)n2CCSc2nc3ccccc3s2)n(C)c1=O | -1%
Cc1ccc(Cc2cnc(NC(=O)CNCc3ccco3)s2)cc1Cl | 49%
O=C(CN1C(=O)c2ccccc2C1=O)Nc1ncn[nH]1 | -11%
Cc1cccc(NC(=O)CSc2nnc3sc4ccccc4n23)c1 | -20%
Cc1cccc(CN2CCN(c3nc4c(c(=O)[nH]c(=O)n4C)n3CCc3ccccc3)CC2)c1 | -6%
CCOC(=O)C(CC)Sc1nc2c([nH]c3ccccc32)c(=O)n1-c1ccccc1OC (stereo unspecified) | 38%
COc1ccc(NC(=O)CSc2nc(N)c(NC(=O)c3ccccc3)c(=O)[nH]2)c(OC)c1 | -4%
Cc1ccc2c(N)[nH]nc2n1 | 9%
Cc1c(N2C(=O)CS/C2=N\N=C2/C(=O)Nc3ccccc32)c(=O)n(-c2ccccc2)n1C | -24%
Cc1ccc(N2C(=O)NC(=O)/C(=C/c3cn(C)c4ccccc34)C2=O)cc1 | -14%
O=C(CCOc1ccccc1)Nc1nc(-c2cc3ccccc3oc2=O)cs1 | -12%
CC1(C)Cc2c(sc(NC(=O)c3ccc(-c4ccccc4)cc3)c2C#N)C(C)(C)N1 | 2%
Cc1cc(SCC(=O)NC2CCCCC2)nc(=O)[nH]1 | -28%
COCCn1c(NC(=O)Nc2ccccc2C#N)c2ccccc2nc1=O | -9%
Cc1ccc(C(=O)N2CCN=C2SCc2ccc(F)cc2)cc1[N+](=O)[O-] | 16%
COc1cccc2sc(N(Cc3cccnc3)C(C)=O)nc12 | 7%
COc1ccccc1NC(=O)c1oc2ccccc2c1NC(=O)/C=C\c1ccc2c(c1)OCO2 | 6%
COc1ccc(C(=O)NCCc2cc3cc(C)c(C)cc3[nH]c2=O)cc1 | 3%

Further results:
SMILES | Mtb growth
COc1ccc(-c2csc(/C(C#N)=C\c3ccc(OCC(=O)c4ccccc4)c(OC)c3)n2)cc1OC | 41%
Cc1nc2sc(C(c3cccc(F)c3)N3CCC(C(N)=O)CC3)c(O)n2n1 (stereo unspecified) | -8%
Cc1ccnc(NS(=O)(=O)c2ccc(NC(=O)c3cc4c(ccc5ccccc54)oc3=O)cc2)n1 | 14%
COc1ccc(OC)c2[nH]c(=O)c(CCNC(=O)c3ccccc3Cl)cc12 | 15%
CC1(C)Cc2c(sc(NC(=O)c3ccc(Cc4ccccc4)cc3)c2C(N)=O)C(C)(C)N1 | 10µg/mL*
COc1ccc(NS(=O)(=O)c2ccc3c(c2)S(=O)(=O)N=CN3)cc1 | -2%
CCOC(=O)CCC(=O)Nc1c(C(=O)Nc2cccc(OC)c2)oc2ccccc12 | -2%
CCS(=O)(=O)Nc1ccc(C2=NN(C(C)=O)C(c3ccc(Cl)o3)C2)cc1 (stereo unspecified) | -2%
O=C(Cc1n[nH]c(=O)[nH]c1=O)N/N=C/c1ccccc1Cl | -10%
COc1ccc2cc(CCNC(=O)c3ccc(C)c([N+](=O)[O-])c3)c(=O)[nH]c2c1 | -6%
CC(C)=CC(=O)Nc1sc2c(c1C(N)=O)CCC(C)C2 (stereo unspecified) | 13%
O=C(CSc1ccccc1)Nc1nnc(-c2ccccc2Cl)s1 | 1%
O=C(O)c1ccccc1C(=O)Nc1ccc(S(=O)(=O)N2CCCCCC2)cc1 | -14%
O=C(CC1Nc2ccccc2NC1=O)Nc1ccc(O)cc1 (stereo unspecified) | 3%
CC(=O)Oc1cc(C)cc2oc(=O)c3c(c12)CCCC3 | 6.8µg/mL*
CCCCCn1c(Sc2ncccn2)nc2c1c(=O)[nH]c(=O)n2C | -8%
O=C(COc1ccc(Cl)cc1)Nc1c(C(=O)Nc2ccc(F)cc2)oc2ccccc12 | 0%
CCOc1ccc(C(=O)Nc2nnc(-c3ccccc3Cl)s2)cc1 | 8%
Cc1ccc(-c2nnc(NC(=O)c3cccc([N+](=O)[O-])c3)o2)c(C)c1 | 10%
Cc1c(C)n2c(SCC(=O)Nc3ccc([N+](=O)[O-])cc3)nnc2[nH]c1=O | -12%
COC(=O)c1cc(N/C=C(\C#N)c2nc(-c3ccc(C)cc3)cs2)cc(C(=O)OC)c1 | 5%
Cc1nc2sc(C(c3cccc(Br)c3)N3CCOCC3)c(O)n2n1 (stereo unspecified) | -11%
COc1ccc(OC)c(NC(=O)c2cc3cc(Cl)ccc3oc2=O)c1 | 0.77µg/mL*
O=C(O)c1ccccc1SC1CC(=O)N(CCc2ccccc2)C1=O (stereo unspecified) | -5%
COc1ccc(C(=O)Nc2nc(-c3ccc([N+](=O)[O-])cc3)cs2)cc1 | -2%

More records
SMILES | Mtb growth
Cc1nnc(SCc2ccc(C(F)(F)F)cc2)n(N)c1=O | 9%
O=C(CSc1ccc2nnc(-c3cccnc3)n2n1)NCc1ccco1 | -4%
Cn1c(=O)c2[nH]c(Sc3ccc([N+](=O)[O-])cc3[N+](=O)[O-])nc2n(C)c1=O | -14%
CCc1ccc(NC(=O)CSc2ccc3nnc(-c4ccccc4)n3n2)cc1 | -6%
COc1ccc(Cn2cc(C(=O)c3ccc(F)cc3)c(=O)c3cc4c(cc32)OCO4)cc1 | 59%
COC(=O)c1ccc2c(c1)C(=O)/C(=C/c1cccc(O)c1)O2 | 51%
COc1ccc(CC(=O)Nc2cc(-c3cn4nc(OC)ccc4n3)ccc2C)cc1 | 3%
COc1cccc(Nc2nc(N3CCCCC3)nc3c2cnn3C)c1 | ?
Cc1ccc(NC(=O)CSc2nc(-c3ccc(C)cc3)nc3c2Cc2ccccc2O3)cc1 | 2%
CN(Cc1ccccc1)c1nc2c(c(=O)[nH]c(=O)n2C)n1CCSc1ncccn1 | -2%
Cc1cccc(NC(=O)CSc2ccc3nnc(-c4ccc(F)cc4)n3n2)c1C | 8%
COc1cccc(C(c2c(O)cc(C)n(Cc3cccnc3)c2=O)N2CCN(CCO)CC2)c1 (stereo unspecified) | -2%
Cc1cccc(Cn2c(NC3CCCCC3)nc3c2c(=O)[nH]c(=O)n3C)c1 | -4%
CCOC(=O)c1oc2ccccc2c1NC(=O)COc1ccccc1 | 11%
O=C(O)c1cccc(S(=O)(=O)Nc2ccc(NS(=O)(=O)c3cccc(C(=O)O)c3)cc2)c1 | -25%
CC1C(=O)N2CCCc3cc(S(=O)(=O)Nc4ccccc4F)cc1c32 (stereo unspecified) | -5%
O=c1oc2ccc(Cl)cc2cc1-c1nnc(Nc2ccc(F)cc2)s1 | 0%
COc1ccc(OC)c(S(=O)(=O)NC2CC(=O)N(c3ccc4c(c3)OCCO4)C2)c1 (stereo unspecified) | 2%
O=C(CCOc1ccccc1)Nc1nnc(-c2ccc(Br)cc2)o1 | 3%
Cc1c(Cl)ccc2sc(N(CCCn3ccnc3)C(=O)COc3ccccc3)nc12 | 3.1µg/mL*
Cn1c(=O)c2c(SCC(=O)Nc3ccc(Br)cc3)ccnc2n(C)c1=O | -3%
CCOC(=O)c1nn(-c2ccc(OC)cc2)c(=O)c2c(NC(=O)/C=C/c3ccc4c(c3)OCO4)scc12 | -12%
CCOC(=O)c1nn(-c2ccc(C)cc2)c(=O)c2c(NC(=O)c3cccc(Br)c3)scc12 | -6%
O=C1C=CC(=CN(O)c2ccc(Cl)cc2)C=C1 | -24%
CC1=NN(c2ccccc2)C(=O)/C1=C\c1ccc(O)cc1 | 3%

Reformatted: 14 of the compounds above.
Molecule	Mtb growth
COc1cccc(C(c2c(O)cc(C)n(Cc3cccnc3)c2=O)N2CCN(CCO)CC2)c1 (stereo unspecified)	-2%
Cc1cccc(Cn2c(NC3CCCCC3)nc3c2c(=O)[nH]c(=O)n3C)c1	-4%
CCOC(=O)c1oc2ccccc2c1NC(=O)COc1ccccc1	11%
O=C(O)c1cccc(S(=O)(=O)Nc2ccc(NS(=O)(=O)c3cccc(C(=O)O)c3)cc2)c1	-25%
CC1C(=O)N2CCCc3cc(S(=O)(=O)Nc4ccccc4F)cc1c32 (stereo unspecified)	-5%
O=c1oc2ccc(Cl)cc2cc1-c1nnc(Nc2ccc(F)cc2)s1	0%
COc1ccc(OC)c(S(=O)(=O)NC2CC(=O)N(c3ccc4c(c3)OCCO4)C2)c1 (stereo unspecified)	2%
O=C(CCOc1ccccc1)Nc1nnc(-c2ccc(Br)cc2)o1	3%
Cc1c(Cl)ccc2sc(N(CCCn3ccnc3)C(=O)COc3ccccc3)nc12	3.1µg/mL*
Cn1c(=O)c2c(SCC(=O)Nc3ccc(Br)cc3)ccnc2n(C)c1=O	-3%
CCOC(=O)c1nn(-c2ccc(OC)cc2)c(=O)c2c(NC(=O)/C=C/c3ccc4c(c3)OCO4)scc12	-12%
CCOC(=O)c1nn(-c2ccc(C)cc2)c(=O)c2c(NC(=O)c3cccc(Br)c3)scc12	-6%
O=C1C=CC(=CN(O)c2ccc(Cl)cc2)C=C1	-24%
CC1=NN(c2ccccc2)C(=O)/C1=C\c1ccc(O)cc1	3%

(more compounds)
SMILES | Mtb growth
COc1ccc(-c2nnc(NC(=O)c3ccccc3Br)o2)cc1 | 82µg/mL*
Cc1ccc(S(=O)(=O)c2cnc(SCC(=O)Nc3cccc(Cl)c3)[nH]c2=O)cc1C | -17%
N#Cc1ccc(CSc2nnc3sc4ccccc4n23)cc1 | 2%
COc1cccc(Cn2cc(C(=O)c3ccc(F)cc3)c(=O)c3cc(OC)ccc32)c1 | 3%
Nc1ncnc(NCCOCCO)c1[N+](=O)[O-] | 1%
Cc1ccc(NC(=O)CSc2nc(N)c(NC(=O)c3ccc(Br)cc3)c(=O)[nH]2)cc1Cl | -4%
Cc1nnc2ccc(-c3cccc(NC(=O)COc4ccc(Cl)cc4)c3)nn12 | 23µg/mL*
CC(=O)c1ccc(NC(=O)CSc2ncnc3c2cnn3-c2ccc(C)cc2C)cc1 | -12%
Cc1ccc2cc(CCNC(=O)C3CC3)c(=O)[nH]c2c1 | -5%
Cc1ccc(-c2nnc(NC(=O)c3ccco3)s2)cc1 | 47%
Cn1c(=O)cc2c3c(cccc31)C(=O)c1ccccc1-2 | ?
Cc1cc(NC(=O)CSc2nnc(C)c(=O)n2N)no1 | -4%
COc1ccc(C(=O)Nc2nnc(-c3cccc([N+](=O)[O-])c3)s2)cc1OC | 6%
COc1ccccc1N=c1oc2ccc(Br)cc2cc1C(=O)NC(C)=O | 5%
O=C(Nc1nncs1)c1ccccc1O | 3%
COc1ccc(C(=O)Nc2c(N)nc(SCC(=O)N3CCCCCC3)[nH]c2=O)cc1OC | -8%
COc1ccc(NC(=O)CSc2nc3c([nH]2)c(=O)n(C)c(=O)n3C)cc1 | 55%
CCc1nc2sc(C(c3ccco3)N3CCN(CCO)CC3)c(O)n2n1 (stereo unspecified) | -1%
O=C(OC1CCCCC1)c1cc2cc([N+](=O)[O-])ccc2oc1=O | 52%
CSc1ncc(C(=O)Nc2ccc(C)c(C)c2)c(=O)n1C | -5%
COc1ccccc1/C=C/C1=NC(=C\c2coc3ccccc3c2=O)/C(=O)O1 | 5%
Cc1c(C)n2c3c(=O)[nH]c(=O)n(C)c3nc2n1-c1ccccc1O | 0.75µg/mL*
CCS(=O)(=O)c1cccc(C(=O)Nc2sc3c(c2C#N)CCCCC3)c1 | 2%
COc1ccc(-c2nc(SCC(=O)Nc3ccc(Cl)cc3)c3c(=O)n(C)c(=O)n(C)c3n2)cc1 | -4%
Cc1c(C)n2c(SCC(=O)Nc3ccc4c(c3)OCCO4)nnc2[nH]c1=O | -6%

Other structures:
SMILES | Mtb growth
COc1ccc2nc(-c3ccc(NC(=O)c4ccccc4F)cc3)cn2n1 | 0%
O=C(/C=C/c1ccccc1)NN1C(=O)c2ccccc2C1=O | 15%
COc1ccccc1-n1c(CNC(=O)COc2ccccc2)nnc1SCC(=O)Nc1nnc(C)s1 | -4%
COc1ccc(-n2c(N)cc(=O)nc2SCC(=O)N2CCCc3ccccc32)cc1 | 16%
CC(=O)Nc1c(C(=O)Nc2ccc3c(c2)OCCO3)oc2ccccc12 | 1%
O=c1[nH]cc(S(=O)(=O)Nc2ccc(F)c(Cl)c2)c(=O)[nH]1 | -9%
COc1cccc(-n2c(=O)[nH]c3c(C(N)=O)nc(-c4ccc(Cl)cc4)nc32)c1 | -2%
COc1ccc(C)cc1S(=O)(=O)Nc1cccc(-n2c(C)nc3ccccc3c2=O)c1 | -1%
CC1CCc2sc(NC(=O)c3ccccc3F)c(C#N)c2C1 (stereo unspecified) | -1%
COc1ccc(SCC(=O)Nc2sc3c(c2C#N)CCN(C(C)=O)C3)cc1 | 0%
Cc1ccc(Cn2c(Sc3ccc(C)cc3)nc3c2c(=O)[nH]c(=O)n3C)cc1 | 13%
CN1C(=O)c2ccc(NC(=O)c3ccc(Cl)cc3Cl)cc2C1=O | -7%
COc1ccccc1C(=O)Nc1c(C(=O)Nc2ccccc2)oc2ccccc12 | 2%
NC(=O)c1c(NC(=O)c2cc3c(ccc4ccccc43)oc2=O)sc2c1CCCCC2 | 27%
O=C(NCCc1nnc2ccc(SCc3cccc([N+](=O)[O-])c3)nn12)c1ccccc1 | 6%
O=C(Cn1cnc2c(cnn2-c2ccc(F)cc2)c1=O)Nc1cccc([N+](=O)[O-])c1 | 0%
Cc1ccc(-n2c(C)cn3c4c(=O)n(Cc5ccccc5)c(=O)n(C)c4nc23)cc1 | 3%
CCc1nc2sc(C(c3ccc(Cl)cc3Cl)N3CCN(C(C)=O)CC3)c(O)n2n1 (stereo unspecified) | 16%
Cc1cccc(NC(=O)CSc2nnc(Cc3ccc(Cl)cc3)c(=O)n2N)c1 | -3%
O=C(c1ccc(F)cc1)c1cn(Cc2ccc(F)cc2)c2cc3c(cc2c1=O)OCCO3 | 6%

These rows are one share of the data; count on the stated rates, not on these rows.
